# E coli growth – inhibitors of Escherichia coli growth. actives 0.21% (n = 330,000). AID 1053175. OD600, 23 h; stronger effect = lower value. OD600 absorbance (concentration not given with the values);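 active = OD600 absorbance below the run mean of sample wells minus 3.6 SD, in any replicate, cut at about 0.56 in these data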;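 note: stock transfer was 300 nL into about 60 µL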
# UCH37 inh – human UCH37 deubiquitinating enzyme inhibition; actives 0.33% (n = 330,000); AID 588478; Q9Y5K5; inhibition, % (test concentration not listed); purified proteasome/UCH37, Ub-AMC cleavage fluorescence;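 active = mean of two replicates above 20%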;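 note: 0% = compound-free wells with enzyme and 100% = wells lacking proteasome; stock transfer was 100 nL into about 20 µL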
# Target sequence (Q9Y5K5 whole entry, looked up): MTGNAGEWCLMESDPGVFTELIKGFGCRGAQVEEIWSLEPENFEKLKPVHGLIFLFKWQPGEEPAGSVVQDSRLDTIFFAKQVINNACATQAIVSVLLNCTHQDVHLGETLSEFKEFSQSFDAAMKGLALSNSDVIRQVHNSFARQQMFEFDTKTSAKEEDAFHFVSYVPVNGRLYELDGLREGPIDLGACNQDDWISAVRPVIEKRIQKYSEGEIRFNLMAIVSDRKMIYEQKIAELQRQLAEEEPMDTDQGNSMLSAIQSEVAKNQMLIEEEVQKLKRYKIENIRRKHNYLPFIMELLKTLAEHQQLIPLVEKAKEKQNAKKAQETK
#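 System: Proteasome-associated human UCH37 deubiquitinase; Input: 0.15 nM proteasome in added enzyme buffer; Also added: Ub-AMC substrate from 1 µM stock; Incubation: 30 min compound-proteasome preincubation then 25 min substrate reaction, room temperature; Detection: fluorescence, ex 355 nm, em 460 nm; Read-out: % inhibition of Ub-AMC cleavage fluorescence; Benchmarks: no-proteasome and no-compound wells.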
# ALR inh – blocks human ALR sulfhydryl oxidase activity. P55789. purified ALR, DTT oxidation, H2O2 HRP-luminol luminescence. inhibition, % (test concentration not listed). actives 3.8% (n = 290,000). AID 485317;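 active = mean and each replicate at 75% or more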;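 note: stock transfer was 7.5 nL into about 7.5 µL; 0% = neutral wells and 100% = wells with inactivated enzyme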
# Target sequence (P55789 whole entry, looked up): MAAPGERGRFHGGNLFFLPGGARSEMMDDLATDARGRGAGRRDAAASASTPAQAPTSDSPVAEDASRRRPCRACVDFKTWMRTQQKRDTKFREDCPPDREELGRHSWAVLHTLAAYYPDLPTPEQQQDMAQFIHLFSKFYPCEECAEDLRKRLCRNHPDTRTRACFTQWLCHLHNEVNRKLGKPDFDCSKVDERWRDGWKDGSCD
# B2AR ag – agonists of human beta-2 adrenergic receptor inducing internalization; P07550; Am2.2-beta2AR cells, FAP receptor internalization, flow cytometry; reference of the scale not given here; response, % (test concentration not listed); actives 0.43% (n = 340,000); AID 504454;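 active = response above a set limit, near 3 SD of response in nonfluorescent compounds, cut at about 42% in these data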;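 note: stock transfer was 100 nL into about 11 µL; a reference agonist was the positive control; negative values mostly stem from fluorescent compounds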
# Target sequence (P07550 whole entry, looked up): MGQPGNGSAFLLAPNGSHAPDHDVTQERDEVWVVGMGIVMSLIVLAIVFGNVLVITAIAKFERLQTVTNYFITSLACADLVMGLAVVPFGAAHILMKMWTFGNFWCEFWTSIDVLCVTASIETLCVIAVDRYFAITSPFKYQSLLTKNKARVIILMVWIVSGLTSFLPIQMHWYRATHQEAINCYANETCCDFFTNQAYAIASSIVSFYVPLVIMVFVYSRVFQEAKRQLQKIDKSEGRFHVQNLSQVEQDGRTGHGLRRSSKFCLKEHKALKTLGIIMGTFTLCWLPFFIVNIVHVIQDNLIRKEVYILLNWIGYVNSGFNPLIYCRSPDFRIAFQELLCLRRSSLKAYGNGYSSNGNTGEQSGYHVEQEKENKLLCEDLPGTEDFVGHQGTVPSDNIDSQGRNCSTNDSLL
# Ecoli rRNA inh – selective bacterial rRNA inhibition in E. coli; E. coli WT GFP vs humanized-ribosome RFP mutants, fluorescence, 24 h; stronger effect = lower value; DMSO median 0, no signal -100; GFP signal change (wild-type ribosome), % (no concentration beside the values); actives 1.6% (n = 350,000); AID 720706;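 active = significant combined selectivity score with lowered wild-type GFP, culture density cut under 30%, mutant RFP and density less affected; inactive = any of these conditions unmet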; note: one replicate is shown; some compounds called inactive have numbers as strong as hits
# FGF22 binding – binders of recombinant human FGF22 by thermal shift; Q9HCT0; SYPRO orange fluorescence; percent of sucrose octasulfate shift, DMSO zero; calls only at 9.99 µM; actives 1.5% (n = 340,000);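 active = melting point raised past a set limit in the mean and every replicate; three in four hits are not shown here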
# HNF4A DNA FP – change in binding of human HNF4 alpha to DNA; HNF4a-FITC DNA binding, fluorescence polarization, 1 h; AID 1224865; activity change, % at 10 µM; actives 0.3% (n = 360,000); P41235; in the data active = activity change above about 30%, passing the limit was not always enough;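 note: controls were the assay level and a saturating level of protein; the project sought stronger binding though the title names inhibitors; some compounds called inactive have numbers as strong as hits; positive values seem to mean higher polarization but the record does not say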
# Ecoli rRNA inh OD600 – recorded beside Ecoli rRNA inh, whose call it bears; OD600 change, %; measured here: OD600 growth;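 optical density of the mix in the first replicate; 0 = DMSO median and -100 = no signal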
# Ecoli rRNA inh RFP – also measured in Ecoli rRNA inh; calls as there; RFP signal change, %; measured here: RFP humanized mutant strains;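 first replicate; 0 = DMSO median and -100 = no signal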
# * hit, by the source's call; i = inactive; . = not tested or not shown; & = joins results of further samples. Only part of the results is shown; the hit share may differ from the screen's.
SMILES,E coli growth,UCH37 inh,ALR inh,B2AR ag,Ecoli rRNA inh,Ecoli rRNA inh OD600,Ecoli rRNA inh RFP,FGF22 binding,HNF4A DNA FP
COc1ccc(NC(=O)C(c2ccncc2)n2c(=O)c(-c3ccccc3)nc3ccccc32)cc1 (stereo not drawn),.,.,.,.,8,0,1.1,i,1.1
CC[C@@H]1CCCCc2ccccc2[C@@H](C(=O)C[C@@H](O)CC(C)=O)OC1=O,0.7,4.6,.,-4,1,10,-1.0,i,2.1
CCN(CC)C(=O)C1CCCN(c2ccc([N+](=O)[O-])cc2/C=N/NC(=O)c2ccc([N+](=O)[O-])cc2)C1 (stereo not drawn),.,.,-5,-2,.,.,.,.,1.5
CC(Nc1ccccc1CO)C(=O)Nc1cccc(Cl)c1Cl (stereo not drawn),0.66,4.6,-2,2,-7,-4,-0.2,i,3.1
CN(C)c1ccc(-c2csc(C(O)c3cccc(Cl)c3)n2)cc1 (stereo not drawn),.,.,.,.,-58,-69,-27,i,1.2
CCN(CC(=O)Nc1ccc2c(c1)OCCO2)C(=O)COc1ccc(C)cc1,0.72,-1.7,0,1,8,7,1.4,i,-1.1
Cc1ccc(C(=O)O/N=C/c2c(N3CCOCC3)n(C)c3ccccc23)cc1,.,.,7,-14,.,.,.,.,-0.3
O=S(=O)(c1ccc(Oc2ccc(Br)cc2F)nc1)N1CCCCC1,0.68,-0.4,0,-3,.,.,.,.,-1.5
c1coc(CN2CCN(C(c3cccs3)c3nnnn3C3CCCC3)CC2)c1 (stereo not drawn),0.7,1.0,-19,-11,.,.,.,.,3.8
COc1ccc(NC(=O)C2(C)Cc3c(-c4ccc(NC(C)=O)cc4)ccnc3O2)cn1 (stereo not drawn),.,.,.,.,4,0,-1.7,i,-5.8
O=C(Nc1cccc(Cl)c1)c1ccc2sc([C@H]3C[C@H](O)[C@@H](CO)O3)nc2c1,.,.,.,.,-13,-18,3.0,i,3.5
O=C(NCCNC(=O)c1ccc([N+](=O)[O-])cc1)c1ccncc1,0.69,4.8,-10,1,-11,-5,-3.2,i,0.8
Cc1cc(C)c(NC(=O)Cn2cnc3c(oc4ccccc43)c2=O)c(C)c1,0.68,1.0,27,-3,8,1,-12,i,-2.7
CC1CN(CCCCOc2ccc(Cl)c3ccccc23)CC(C)O1 (stereo not drawn),0.63,0.4,-11,2,-59,-77,-18,i,1.0
CCCCc1cc(=O)oc2cc(C)cc(OCC(=O)N3CCC(C(=O)O)CC3)c12,0.79,-182,.,0,17,10,11,i,3.9
OCCN1CCN(CC#CCn2c3ccccc3c3ccccc32)CC1,0.69,23*,-23,10,.,.,.,.,-1.7
CCOC(=O)c1c(NC(=O)COC(=O)c2ccccn2)sc(C(=O)N(C)C)c1C,0.7,5.4,.,-2,2,-2,-0.1,i,2.3
Cc1n[nH]c(=S)n1/N=C/c1c(O)ccc2ccccc12,.,.,-14,6,9,6,0.7,i,2.1
COc1ccc(-c2csc(NC(=O)c3ccccc3NS(=O)(=O)c3ccc(F)c(F)c3)n2)cc1,0.65,-6.2,4,24,-54,-80,-27,.,-3.4
CCCOc1ccc(NC(=O)Cc2ccc(S(=O)(=O)N3CCOCC3)s2)cc1OCCC,0.67,4.5,-16,4,1,6,1.0,.,2.6
Cc1ccc(NC(=O)NC2CCCCC2)c(C)c1,0.68,-1.8,-1,2,5,24,0.8,i,1.9
O=C1NC(=O)c2cc(NC(=O)C3CCCO3)ccc21 (stereo not drawn),0.69,-320,.,8,.,.,.,.,-1.6
CC1CCN(C(=O)COc2ccc3ccccc3c2Br)CC1,.,.,-14,-3,-30,-45,6.9,i,-1.5
COc1ccnc(Oc2ccc3ccccc3c2)c1C#N,0.67,2.8,-1,-5,18,2,-0.9,i,3.6
CCN1C(=O)[C@H]2[C@@H](c3ccc(-c4cccc(Cl)c4)c(OC)c3)N[C@@](CC(C)C)(C(=O)OC)[C@H]2C1=O,.,5.6,2,4,7&8,9&5,4.2&-1.7,i,-0.3

# An excerpt from above in order of their number in UCH37 inh, low to high.
SMILES,E coli growth,UCH37 inh,ALR inh,B2AR ag,Ecoli rRNA inh,Ecoli rRNA inh OD600,Ecoli rRNA inh RFP,FGF22 binding,HNF4A DNA FP
Cc1ccc(NC(=O)NC2CCCCC2)c(C)c1,0.68,-1.8,-1,2,5,24,0.8,i,1.9
COc1ccnc(Oc2ccc3ccccc3c2)c1C#N,0.67,2.8,-1,-5,18,2,-0.9,i,3.6
CCCOc1ccc(NC(=O)Cc2ccc(S(=O)(=O)N3CCOCC3)s2)cc1OCCC,0.67,4.5,-16,4,1,6,1.0,.,2.6

# Four of these compounds, set out differently.
canonical_smiles | E coli growth | UCH37 inh | ALR inh | B2AR ag | Ecoli rRNA inh | Ecoli rRNA inh OD600 | Ecoli rRNA inh RFP | FGF22 binding | HNF4A DNA FP
O=S(=O)(c1ccc(Oc2ccc(Br)cc2F)nc1)N1CCCCC1 | 0.68 | -0.4 | 0 | -3 | . | . | . | . | -1.5
CC1CN(CCCCOc2ccc(Cl)c3ccccc23)CC(C)O1 (stereo not drawn) | 0.63 | 0.4 | -11 | 2 | -59 | -77 | -18 | i | 1.0
COc1ccc(NC(=O)C(c2ccncc2)n2c(=O)c(-c3ccccc3)nc3ccccc32)cc1 (stereo not drawn) | . | . | . | . | 8 | 0 | 1.1 | i | 1.1
O=C1NC(=O)c2cc(NC(=O)C3CCCO3)ccc21 (stereo not drawn) | 0.69 | -320 | . | 8 | . | . | . | . | -1.6

# Going on with the list.
SMILES,E coli growth,UCH37 inh,ALR inh,B2AR ag,Ecoli rRNA inh,Ecoli rRNA inh OD600,Ecoli rRNA inh RFP,FGF22 binding,HNF4A DNA FP
O=C(O)CN1C(=O)/C(=C\c2ccccc2OCc2ccccc2)SC1=S,.,.,.,.,-29,-37,-9.4,i,-1.6
Cc1ccc(Nc2cc(C)c3c(O)cccc3n2)cc1C,0.5*,-28,35,7,-55,-81,-30,i,-4.4
CC(C)[C@H](NC(=O)c1ccccc1F)C(=O)OCC(=O)NC(=O)NC1CCCCC1,0.7,0.5,-13,0,-3,9,-0.5,i,-1.0
CCOc1ccc(CCNC(=O)C(CCC(N)=O)NC(=O)OCc2ccccc2)cc1OCC (stereo not drawn),0.7,-1.0,-13,1,11,14,4.8,i,-1.1
O=C1NC[C@H](Cc2ccccc2)N(CCc2cccc(F)c2)C1=O,.,-1.0,.,-5,-6,-2,-4.3,i,0.0
O=C(Nc1ccc2c(c1)OCCO2)C(c1cc2ccccc2o1)N1CCN(c2ccc(C(F)(F)F)cn2)CC1 (stereo not drawn),.,.,.,.,12,19,4.3,i,-0.5
COc1ccc(CN2CCCC(C(=O)N3CCCC3)C2)c(OC)c1 (stereo not drawn),0.65,0.1,-1,9,19,17,0.8,i,-2.1
COc1ccc(NC(=O)CCCC(=O)c2ccccc2)c(OC)c1,0.67,-0.9,-9,-1,-10,-11,-2.2,i,5.1
COc1ccc(C2=NN(c3ccccc3)C(=O)/C2=C\c2ccc(O)c(OC)c2)cc1,0.71,3.9,-14,14,-11,-8,-6.2,i,5.6
CC(=O)Nc1ccc(NS(=O)(=O)c2cccc3ccccc23)cc1,0.68,0.2,-1,9,.,.,.,.,-0.1
CC(NC(=O)COC(=O)/C=C/c1ccc2c(c1)OCO2)c1ccccc1 (stereo not drawn),0.7,-8.8,2,-5,7,11,0.0,i,-2.0
O=C(Nc1ccc([N+](=O)[O-])cn1)c1ccc2c(c1)OCO2,0.72,0.8,4,-2,7,11,1.4,i,-0.9
CC(c1ccc(C(C)(C)C)cc1)S(=O)CC(O)CO (stereo not drawn),0.72,4.6,-5,-3,.,.,.,.,4.4
Cc1ccc(N2CC(C(=O)Nc3c4c(nn3C(C)(C)C)CS(=O)(=O)C4)CC2=O)cc1 (stereo not drawn),0.69,1.3,0,0,4,8,-1.5,i,0.3
COc1ccc(C(NC(C)=O)c2c(O)ccc3ccccc23)cc1OC (stereo not drawn),0.72,-19,.,-8,.,.,.,.,1.1
CNC(=O)COC(=O)c1[nH]c(C)c(C(C)=O)c1C,0.69,2.4,-8,-5,.,.,.,.,2.2
C[C@H](CO)N1C[C@H](C)[C@@H](CN(C)S(=O)(=O)c2ccc(F)cc2)Oc2c(NC(=O)Nc3ccccc3)cccc2C1=O,.,1.5,-3,-8,-1&-7,0&-15,0.9&15,i,-8.1
CCCC[C@@H](CN[C@H](C)CNC)NCC1CCC(C(C)(C)C)CC1 (stereo partly drawn),.,.,-11,.,-41,-70,2.8,i,.
Cc1nn2c(SCC(=O)c3cccs3)cc(C(C)(C)C)nc2c1-c1ccccc1,0.7,-3.3,5,-1,-30*,-17*,-9.4*,i,2.0
Cc1cc(/C=N/NC(=O)c2cccc([N+](=O)[O-])c2)c(C)n1-c1ccccc1,.,.,.,0,13,8,-3.2,i,4.0
CCOc1cc(N2CCOCC2)c(OCC)cc1NC(=O)COC(=O)c1cc2ccccc2cc1O,0.74,2.1,-10,1,.,.,.,.,-1.9
Cc1ccc(C2=NS(=O)(=O)N(C)C(C(=O)NCc3ccccn3)=C2)cc1,0.67,1.4,-6,-8,-5,1,0.9,i,2.3
O=[N+]([O-])c1cccc2c1ccc1ncccc12,0.64,6.1,-5,-17,-27,-32,-7.0,i,-8.5
COc1ccc(CCNC(=O)C2CC(=O)N(c3ccc(C(C)(C)C)cc3)C2)cc1OC (stereo not drawn),0.65,0.8,-2,4,-5,-8,-4.7,i,4.0
CCC(C)NCC(=O)Nc1sc2c(c1C(N)=O)CCC2 (stereo not drawn),0.71,-1.1,3,-7,.,.,.,.,5.7
CC(=O)Nc1ccc(S(=O)(=O)NNC(=S)NCC2CCCO2)cc1 (stereo not drawn),0.71,3.3,90*,-5,9,8,-0.2,i,1.9
CCN1C(=O)[C@H]2[C@H]3CN=C(SCc4ccc(C(=O)OC)cc4)N3[C@@](CC)(C(=O)OC)[C@H]2C1=O,0.67,0.6,.,0,-3,0,-5.0,.,-0.6

# Source: PubChem
